Compound activity (PubChem BioAssay)
AF4-AF9 inh = inhibitors of AF4 peptide binding to AF9, primary screen, biochemical, AlphaScreen, biotin-AF4 peptide, FLAG-AF9, single point; inhibition, % at 10 µM; 350,000 tested, 0.47% active; AID 651704, 2012;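 active means every replicate reaching a set inhibition limit, whatever the replicate mean, cut at about 25% in these data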;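 further: 0% = plate neutral control median and 100% = total signal loss; the record names both 10 and 1 µM as test concentration; the first replicate is given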
Target sequence (P42568 whole entry, looked up): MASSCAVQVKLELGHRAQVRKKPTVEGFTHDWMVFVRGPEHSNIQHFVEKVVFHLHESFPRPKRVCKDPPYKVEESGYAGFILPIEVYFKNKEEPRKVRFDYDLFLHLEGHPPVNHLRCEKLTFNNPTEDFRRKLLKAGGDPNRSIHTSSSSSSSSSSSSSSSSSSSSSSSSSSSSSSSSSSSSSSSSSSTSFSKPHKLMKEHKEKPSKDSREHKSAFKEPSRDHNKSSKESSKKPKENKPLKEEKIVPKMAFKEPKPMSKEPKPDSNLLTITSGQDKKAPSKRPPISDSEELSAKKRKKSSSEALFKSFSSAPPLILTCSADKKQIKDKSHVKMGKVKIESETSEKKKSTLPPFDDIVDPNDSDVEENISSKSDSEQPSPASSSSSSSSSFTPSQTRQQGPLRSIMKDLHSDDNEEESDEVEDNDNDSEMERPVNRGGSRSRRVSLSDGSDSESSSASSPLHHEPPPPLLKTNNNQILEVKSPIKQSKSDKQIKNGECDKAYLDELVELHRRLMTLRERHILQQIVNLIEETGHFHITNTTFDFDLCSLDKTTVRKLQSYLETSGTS
Ecoli rRNA inh = reduced GFP signal of wild-type E. coli, primary screen, bacterial rRNA inhibitor project, GFP/RFP fluorescence, OD600, single point; E. coli WT GFP vs humanized-ribosome RFP mutants, 24 h; hits give low values; DMSO median 0, no signal -100; GFP signal change (wild-type ribosome), % (no concentration beside the values); 350,000 tested, 1.6% active; AID 720706, 2013;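 active means significant combined selectivity score with lowered wild-type GFP, culture density cut under 30%, mutant RFP and density less affected; inactive means any of these conditions unmet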; further: one replicate is shown; some compounds called inactive have numbers as strong as hits
FGF22 binding = binders of human FGF22 protein, primary screen, FGF22 synaptogenesis inhibitor project, biophysical, thermal shift, single point; Fibroblast growth factor 22 (Homo sapiens), Q9HCT0; recombinant FGF22 thermal shift, SYPRO orange fluorescence; percent of sucrose octasulfate shift, DMSO zero; calls only at 9.99 µM; 340,000 tested, 1.5% active; AID 651658, 2012;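 active means melting point raised past a set limit in the mean and every replicate; three in four hits are not shown here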
Target sequence (Q9HCT0 whole entry, looked up): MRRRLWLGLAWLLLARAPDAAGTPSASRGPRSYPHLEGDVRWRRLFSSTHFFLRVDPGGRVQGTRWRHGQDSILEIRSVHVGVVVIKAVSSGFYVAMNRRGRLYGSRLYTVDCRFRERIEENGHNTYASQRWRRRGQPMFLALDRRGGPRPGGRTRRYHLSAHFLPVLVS
Ecoli rRNA inh OD600 = also measured in Ecoli rRNA inh; calls as there; OD600 change, %; measured here: OD600 growth;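 optical density of the mix in the first replicate; 0 = DMSO median and -100 = no signal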
Ecoli rRNA inh RFP = also measured in Ecoli rRNA inh; calls as there; RFP signal change, %; measured here: RFP humanized mutant strains;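 first replicate; 0 = DMSO median and -100 = no signal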
Starred values were filed as active, the others as inactive. This is a subset (hit frequency here may not be typical).

Results for CC(C)[C@H](NC(=O)c1ccc(Cl)cc1Cl)C(=O)OCc1nc2ccsc2c(=O)[nH]1 ?
AF4-AF9 inh: -1.3; Ecoli rRNA inh: 0; FGF22 binding: inactive; Ecoli rRNA inh OD600: 8; Ecoli rRNA inh RFP: 2.0

Results for COc1ccc(CN(C)C[C@@H]2Oc3ccc(NC(=O)Nc4ccc(OC)cc4)cc3C(=O)N([C@@H](C)CO)C[C@@H]2C)cc1 ?
AF4-AF9 inh: 7.3; Ecoli rRNA inh: 0; FGF22 binding: inactive; Ecoli rRNA inh OD600: 4; Ecoli rRNA inh RFP: -1.2

What do the screens show for `CCCNC(=O)N[C@H]1CC[C@@H](CCn2cc(-c3cccc(F)c3)nn2)O[C@H]1CO`?
AF4-AF9 inh: 0.7; Ecoli rRNA inh: -4; FGF22 binding: inactive; Ecoli rRNA inh OD600: -4; Ecoli rRNA inh RFP: 0.3

How did C[C@H](O)C#Cc1ccc2c(c1)O[C@@H](CN(C)Cc1ccccn1)[C@H](C)CN([C@H](C)CO)S2(=O)=O do in these assays?
AF4-AF9 inh: -1.2; Ecoli rRNA inh: -3; FGF22 binding: inactive; Ecoli rRNA inh OD600: -12; Ecoli rRNA inh RFP: -3.2

Results for COc1ccc(NC(=O)N(C)C[C@@H]2Oc3ccc(NC(=O)Cc4cn(C)c5ccccc45)cc3CC(=O)N([C@@H](C)CO)C[C@@H]2C)cc1 ?
AF4-AF9 inh: 3.7; Ecoli rRNA inh: 1; FGF22 binding: inactive; Ecoli rRNA inh OD600: -5; Ecoli rRNA inh RFP: 0.8

What do the screens show for `COCCNC(=O)C[C@@H]1CC[C@@H]2[C@H](COc3ccc(NC(=O)Nc4ccccc4)cc3C(=O)N2C)O1`?
AF4-AF9 inh: -0.6; Ecoli rRNA inh: 4; FGF22 binding: inactive; Ecoli rRNA inh OD600: 0; Ecoli rRNA inh RFP: -3.8

How did CC(C)C#Cc1ccc2c(c1)O[C@@H](CN(C)Cc1cncnc1)[C@H](C)CN([C@H](C)CO)S2(=O)=O do in these assays?
AF4-AF9 inh: 5.4; Ecoli rRNA inh: -5; FGF22 binding: inactive; Ecoli rRNA inh OD600: -16; Ecoli rRNA inh RFP: 6.8

Results for CCNC(=O)[C@@H]1[C@@H](CO)[C@@H]2Cn3c(ccc(-c4ccccc4OC)c3=O)[C@@H]2N1CC ?
AF4-AF9 inh: -5.1; Ecoli rRNA inh: -2; FGF22 binding: inactive; Ecoli rRNA inh OD600: 5; Ecoli rRNA inh RFP: 0.2

How did Cc1ccc(-c2ccc([C@H]3[C@@H](CO)N4C(=O)CN(C(=O)CN5CCOCC5)C[C@@H]34)cc2)cc1 do in these assays?
AF4-AF9 inh: -3.7; Ecoli rRNA inh: 3; FGF22 binding: inactive; Ecoli rRNA inh OD600: 9; Ecoli rRNA inh RFP: 1.7

What do the screens show for `C[C@@H]1CCCCO[C@@H](CN(C)S(=O)(=O)c2ccc(Cl)cc2)[C@H](C)CN([C@@H](C)CO)C(=O)c2cc(NS(=O)(=O)c3cn(C)cn3)ccc2O1`?
AF4-AF9 inh: -0.3; Ecoli rRNA inh: 0; FGF22 binding: inactive; Ecoli rRNA inh OD600: -10; Ecoli rRNA inh RFP: 0.8

What do the screens show for `C[C@H](CO)N1C[C@H](C)[C@@H](CN(C)C(=O)Nc2ccccc2)OCCCC[C@H](C)Oc2ccc(NS(=O)(=O)c3ccc(Cl)cc3)cc2C1=O`?
AF4-AF9 inh: -3.3; Ecoli rRNA inh: 2; FGF22 binding: inactive; Ecoli rRNA inh OD600: 2; Ecoli rRNA inh RFP: -1.3

How did CCCCCc1c(-c2cccc(F)c2)ncn1CCc1ccccc1OC do in these assays?
AF4-AF9 inh: 2.3; Ecoli rRNA inh: -9; FGF22 binding: inactive; Ecoli rRNA inh OD600: -27; Ecoli rRNA inh RFP: 6.8

What do the screens show for `Cc1ccc(S(=O)(=O)N(C)C[C@@H]2Oc3ccc(NC(=O)Cc4cn(C)c5ccccc45)cc3CC(=O)N([C@H](C)CO)C[C@H]2C)cc1`?
AF4-AF9 inh: 0.2; Ecoli rRNA inh: -1; FGF22 binding: inactive; Ecoli rRNA inh OD600: 6; Ecoli rRNA inh RFP: 0.0

What do the screens show for `COc1ccc(NC(=O)N(C)C[C@H]2Oc3ccc(NS(=O)(=O)c4c(C)noc4C)cc3CC(=O)N([C@H](C)CO)C[C@H]2C)cc1`?
AF4-AF9 inh: -30; Ecoli rRNA inh: 2; FGF22 binding: inactive; Ecoli rRNA inh OD600: 8; Ecoli rRNA inh RFP: 2.0

What do the screens show for `CO[C@@H]1CN(C)C(=O)c2ccc(NC(=O)c3ccc4c(c3)OCO4)cc2OC[C@@H](C)N(CC2CC2)C[C@@H]1C`?
AF4-AF9 inh: -4.1; Ecoli rRNA inh: 1; FGF22 binding: inactive; Ecoli rRNA inh OD600: 3; Ecoli rRNA inh RFP: -3.8

How did CO[C@H]1CN(C)C(=O)c2cc(NC(=O)CC(F)(F)F)ccc2OC[C@@H](C)N(C(=O)c2ccccc2F)C[C@H]1C do in these assays?
AF4-AF9 inh: 0.8; Ecoli rRNA inh: 1; FGF22 binding: inactive; Ecoli rRNA inh OD600: -3; Ecoli rRNA inh RFP: 3.9

What do the screens show for `Cc1cc(Nc2ccccc2C(=O)O)n2ncnc2n1`?
AF4-AF9 inh: -1.2; Ecoli rRNA inh: 7; FGF22 binding: inactive; Ecoli rRNA inh OD600: 15; Ecoli rRNA inh RFP: -4.7

Results for OC(c1cc(F)cc(Cl)c1)c1ncc(-c2ccc(Cl)cc2)[nH]1 (stereo not given) ?
AF4-AF9 inh: 4.3; Ecoli rRNA inh: -53; FGF22 binding: inactive; Ecoli rRNA inh OD600: -77; Ecoli rRNA inh RFP: -18

How did Cc1noc(C)c1NC(=O)Nc1ccc2c(c1)C(=O)N([C@H](C)CO)C[C@@H](C)[C@H](CN(C)C(=O)Nc1c(C)noc1C)O2 do in these assays?
AF4-AF9 inh: -2.9; Ecoli rRNA inh: 4; FGF22 binding: inactive; Ecoli rRNA inh OD600: 1; Ecoli rRNA inh RFP: -0.5

Results for CCC(=O)N1C[C@H](O)COC[C@H]2O[C@H](CC(=O)NCc3cc(F)cc(F)c3)CC[C@@H]21 ?
AF4-AF9 inh: -13; Ecoli rRNA inh: 5; FGF22 binding: inactive; Ecoli rRNA inh OD600: -5; Ecoli rRNA inh RFP: -2.1

Arranged by length of the SMILES (smallest number first): 3 of the compounds above.
Results for OC(c1cc(F)cc(Cl)c1)c1ncc(-c2ccc(Cl)cc2)[nH]1 (stereo not given) ?
AF4-AF9 inh: 4.3; Ecoli rRNA inh: -53; FGF22 binding: inactive; Ecoli rRNA inh OD600: -77; Ecoli rRNA inh RFP: -18

Results for CCC(=O)N1C[C@H](O)COC[C@H]2O[C@H](CC(=O)NCc3cc(F)cc(F)c3)CC[C@@H]21 ?
AF4-AF9 inh: -13; Ecoli rRNA inh: 5; FGF22 binding: inactive; Ecoli rRNA inh OD600: -5; Ecoli rRNA inh RFP: -2.1

What do the screens show for `COc1ccc(NC(=O)N(C)C[C@H]2Oc3ccc(NS(=O)(=O)c4c(C)noc4C)cc3CC(=O)N([C@H](C)CO)C[C@H]2C)cc1`?
AF4-AF9 inh: -30; Ecoli rRNA inh: 2; FGF22 binding: inactive; Ecoli rRNA inh OD600: 8; Ecoli rRNA inh RFP: 2.0

Copied from above, two compounds:
How did Cc1noc(C)c1NC(=O)Nc1ccc2c(c1)C(=O)N([C@H](C)CO)C[C@@H](C)[C@H](CN(C)C(=O)Nc1c(C)noc1C)O2 do in these assays?
AF4-AF9 inh: -2.9; Ecoli rRNA inh: 4; FGF22 binding: inactive; Ecoli rRNA inh OD600: 1; Ecoli rRNA inh RFP: -0.5

Results for CCC(=O)N1C[C@H](O)COC[C@H]2O[C@H](CC(=O)NCc3cc(F)cc(F)c3)CC[C@@H]21 ?
AF4-AF9 inh: -13; Ecoli rRNA inh: 5; FGF22 binding: inactive; Ecoli rRNA inh OD600: -5; Ecoli rRNA inh RFP: -2.1

Remaining list, next part
How did C[C@H]1CCCCO[C@@H](CN(C)C(=O)c2ccccc2)[C@@H](C)CN([C@@H](C)CO)C(=O)c2cc(NC(=O)Nc3ccc(C(F)(F)F)cc3)ccc2O1 do in these assays?
AF4-AF9 inh: -0.7; Ecoli rRNA inh: 0; FGF22 binding: inactive; Ecoli rRNA inh OD600: 10; Ecoli rRNA inh RFP: -0.6

Results for O=C(C[C@H]1CC[C@H]2[C@@H](COC[C@@H](O)CN2C(=O)Nc2ccccc2)O1)NC1Cc2ccccc2C1 ?
AF4-AF9 inh: -1.1; Ecoli rRNA inh: 4; FGF22 binding: inactive; Ecoli rRNA inh OD600: 1; Ecoli rRNA inh RFP: -2.5

Results for CCC(=O)NC(c1ccco1)c1cc(Br)c2cccnc2c1O (stereo not given) ?
AF4-AF9 inh: 0.1; Ecoli rRNA inh: -39; FGF22 binding: inactive; Ecoli rRNA inh OD600: -62; Ecoli rRNA inh RFP: -5.8

How did COc1ccc(O[C@H]2C=C[C@@H](c3ccccc3)O[C@@H]2CO/N=C(\C)CCN2CCCCc3nc(C)c(C)cc32)cc1 do in these assays?
AF4-AF9 inh: 3.5; Ecoli rRNA inh: -9; FGF22 binding: inactive; Ecoli rRNA inh OD600: -13; Ecoli rRNA inh RFP: -16

Results for O=C(C(=O)N1CCN(S(=O)(=O)c2ccc(OC(F)(F)F)cc2)CC1)c1cccc(C(F)(F)F)c1 ?
AF4-AF9 inh: -3.8; Ecoli rRNA inh: 14; FGF22 binding: inactive; Ecoli rRNA inh OD600: 11; Ecoli rRNA inh RFP: 0.7

What do the screens show for `Cc1cc(O)c(C(C)C)cc1NC(=O)Nc1cc(Cl)ccc1Cl`?
AF4-AF9 inh: 17; Ecoli rRNA inh: -43; FGF22 binding: inactive; Ecoli rRNA inh OD600: -74; Ecoli rRNA inh RFP: -5.0

What do the screens show for `C[C@H](CO)N1C[C@H](C)[C@@H](CN(C)C(=O)Nc2ccc(F)cc2)Oc2c(NC(=O)NC3CCCCC3)cccc2C1=O`?
AF4-AF9 inh: -2.4; Ecoli rRNA inh: 2; FGF22 binding: inactive; Ecoli rRNA inh OD600: 0; Ecoli rRNA inh RFP: -2.4

Results for COC(=O)[C@]12C[C@H](CC(=O)NCCCCc3ccccc3)C(=O)N(Cc3ccc4c(c3)OCO4)C1=C[C@H](COCc1ccccc1)O[C@@H]2C ?
AF4-AF9 inh: 0.4; Ecoli rRNA inh: 11; FGF22 binding: inactive; Ecoli rRNA inh OD600: 11; Ecoli rRNA inh RFP: 9.6

Results for C[C@@H]1CN([C@H](C)CO)C(=O)c2cccc(NC(=O)Nc3ccc(F)cc3)c2O[C@H]1CN(C)C(=O)Nc1ccc2c(c1)OCO2 ?
AF4-AF9 inh: 1.9; Ecoli rRNA inh: -4; FGF22 binding: inactive; Ecoli rRNA inh OD600: 1; Ecoli rRNA inh RFP: -1.6

What do the screens show for `COCC(=O)N1C[C@@H](C)[C@@H](OC)CN(C)C(=O)c2cc(NC(=O)Nc3ccccc3)ccc2OC[C@@H]1C`?
AF4-AF9 inh: 2.0; Ecoli rRNA inh: -2; FGF22 binding: inactive; Ecoli rRNA inh OD600: -2; Ecoli rRNA inh RFP: -0.8

Results for O=c1ncccn1C1OC(CO)C(O)C1O (stereo not given) ?
AF4-AF9 inh: -0.7; Ecoli rRNA inh: 22; FGF22 binding: inactive; Ecoli rRNA inh OD600: 23; Ecoli rRNA inh RFP: -2.5

What do the screens show for `CCCCCC(=O)N1C[C@H](n2cc(C3CC3)nn2)[C@@H](O)C[C@@H]1c1ccccc1`?
AF4-AF9 inh: -1.5; Ecoli rRNA inh: -7; FGF22 binding: inactive; Ecoli rRNA inh OD600: -12; Ecoli rRNA inh RFP: -1.2

Results for CC(C)C#Cc1ccc([C@@H]2[C@@H](CO)N3C(=O)CN(S(=O)(=O)c4ccccc4)C[C@@H]23)cc1 ?
AF4-AF9 inh: 0.9; Ecoli rRNA inh: -1; FGF22 binding: inactive; Ecoli rRNA inh OD600: -6; Ecoli rRNA inh RFP: -3.8

How did O=C(C[C@H]1CC[C@@H]2[C@H](COC[C@@H](O)CN2S(=O)(=O)c2ccc(Cl)cc2)O1)NCCN1CCCC1 do in these assays?
AF4-AF9 inh: -9.9; Ecoli rRNA inh: 5; FGF22 binding: inactive; Ecoli rRNA inh OD600: 4; Ecoli rRNA inh RFP: -2.1

How did COCC(=O)N(C)C[C@@H]1Oc2cc(C#CCC(C)C)ccc2S(=O)(=O)N([C@H](C)CO)C[C@@H]1C do in these assays?
AF4-AF9 inh: 1.3; Ecoli rRNA inh: -3; FGF22 binding: inactive; Ecoli rRNA inh OD600: 2; Ecoli rRNA inh RFP: 1.1
